Source: PubChem (National Center for Advancing Translational Sciences (NCATS))
miR-21 reporter: qHTS Assay for Modulators of miRNAs and/orActivators of miR-21. HeLa miR-21 FLuc reporter, luciferase, 48 h. Potency, µM (titrated, usually from 38.3 µM), inactives show at the highest dose reporter change, positive = more light. 340,000 tested, under 10 active; active = well fitted rising curve with a large enough effect; inconclusive = small, poorly fitted or top-dose-only effect; inactive = no such curve, though single readings can be large or run the other way;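 note: % of control where 0% means no effect; miR-21 action dims this reporter so a rising signal means less miR-21 action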
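HeLa cells stably expressing CMV-driven firefly luciferase with a downstream miR-21 binding sequence, endogenously expressing miR-21, were treated with titrations (up to about 40uM final) for 48 hours at 37 degree Celsius. Luciferase luminescence was read after lysis.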
GLA inh pH 4.5: qHTS Assay for Inhibitors of Human alpha-Galactosidase at pH 4.5 | purified enzyme, 4-MU-alpha-Gal fluorescence, pH 4.5 | activity change, negative = inhibition, % at 105 µM | 230,000 tested, under 10 active; inconclusive = small, poorly fitted or top-dose-only inhibition, or a rising curve; inactive = flat fitted curve, though single readings scatter; no compound was filed as active;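 note: 0% = full activity with enzyme and -100% = basal without enzyme; dose as in the result columns while the protocol names 77 µM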
Rango complex inh: qHTS Assay for Inhibitors of Rango (Ran-regulated importin-beta cargo) - Importin beta complex formation | Importin subunit beta-1 (Homo sapiens), Q14974 | Rango CFP/YFP FRET sensor + importin beta, 45 min | Potency, µM (titrated, usually from 92.2 µM), for the others: top-dose inhibition of complex formation | 340,000 tested, 0.031% active; active = rising FRET ratio curve, often small or poorly fitted; inconclusive = mostly compound fluorescence or quenching in the first reads; inactive = flat curves in all reads;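 note: potency is the fitted concentration of half-maximal effect; 0% = DMSO wells and 100% = buffer wells lacking importin beta; nearly all actives have a fitted effect of over 15% in size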
Target sequence (Q14974 whole entry, looked up): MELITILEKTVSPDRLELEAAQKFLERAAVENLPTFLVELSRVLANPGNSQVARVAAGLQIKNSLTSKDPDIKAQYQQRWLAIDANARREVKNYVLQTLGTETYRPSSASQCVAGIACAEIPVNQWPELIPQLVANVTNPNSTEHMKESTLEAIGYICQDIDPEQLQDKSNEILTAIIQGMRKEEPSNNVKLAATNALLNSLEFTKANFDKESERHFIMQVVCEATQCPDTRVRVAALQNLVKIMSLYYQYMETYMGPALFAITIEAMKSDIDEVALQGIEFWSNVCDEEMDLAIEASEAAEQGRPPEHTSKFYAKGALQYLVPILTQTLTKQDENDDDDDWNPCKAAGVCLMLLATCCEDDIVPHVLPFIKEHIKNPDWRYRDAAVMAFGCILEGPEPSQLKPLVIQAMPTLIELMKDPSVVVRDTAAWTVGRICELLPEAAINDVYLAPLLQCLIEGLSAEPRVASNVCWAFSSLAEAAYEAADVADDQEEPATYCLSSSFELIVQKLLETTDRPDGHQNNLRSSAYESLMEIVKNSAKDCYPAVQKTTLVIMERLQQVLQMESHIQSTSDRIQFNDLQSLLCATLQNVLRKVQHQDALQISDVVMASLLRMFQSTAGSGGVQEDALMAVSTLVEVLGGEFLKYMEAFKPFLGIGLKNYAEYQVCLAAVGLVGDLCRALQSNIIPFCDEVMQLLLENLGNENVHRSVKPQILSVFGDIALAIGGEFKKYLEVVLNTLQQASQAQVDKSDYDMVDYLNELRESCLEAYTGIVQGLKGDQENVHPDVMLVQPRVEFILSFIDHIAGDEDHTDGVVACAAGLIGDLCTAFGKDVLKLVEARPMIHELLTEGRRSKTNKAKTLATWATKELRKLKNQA
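Inhibition scored from the CFP 486 nm/YFP 530 nm FRET ratio 45 min after adding 0.125 microM importin beta to 50 nM Rango biosensor preincubated 5 min with compound (room temperature, PBS with DTT, Tween-20, BSA). No-importin wells as positive control.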
Rango dissoc inh: qHTS Assay for Inhibitors of RanGTP induced Rango (Ran-regulated importin-beta cargo) - Importin beta complex dissociation. Biochemical FRET Rango-importin beta, RanGTP-induced dissociation. Potency, µM (series often up to 46.1 µM), inactives show at the highest dose activity change, negative = inhibition. 340,000 tested, 0.071% active; active means falling FRET ratio curve, often poorly fitted, with flat reads before Ran was added; inconclusive means other falling curves, or compound fluorescence or quenching; inactive means flat or rising ratio curve;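 note: potency is the fitted concentration of half-maximal effect; % of control where 0% means no effect; nearly all actives have a fitted effect of over 45% in size; -100% = wells without RanGTP and RCC1; the record marks most hits as doubtful in a second field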
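Compounds sat 5 min at room temperature with 0.1 uM Rango biosensor plus 0.25 uM importin beta, then FRET pre-read. RanGTP-RCC1 (0.6 uM Ran, 2mM GTP, 0.2 uM RCC1) added for 45 min, and the CFP/YFP post-read measured blocked complex dissociation.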
* hit, by the source's call; ? = inconclusive; / = not tested or not shown; & = joins results of further samples.

miR-21 reporter,GLA inh pH 4.5,Rango dissoc inh,Rango complex inh,Structure
-9%,6,2%,3.4%,Cc1cc(NC(=O)CCC(=O)N(c2ccccc2)C(C(=O)NC2CCCCC2)c2cccs2)no1 (stereo not given)
-15%,0,-19%,-1.1%,COc1ccc(C(=O)c2sc(Nc3ccccc3)c(C(=O)Nc3ccc(OC)c(OC)c3)c2N)cc1
/,/,-2%,7.1%,O=C(NNC(=O)c1cc(S(=O)(=O)N2CCCCC2)ccc1Cl)c1ccccc1O
-1%,/,1%,-0.2%,COc1ccc(NC(=O)CS(=O)CC(=O)Nc2ccc(F)cc2F)cc1 (stereo not given)
-33%,4,5%,0.2%,CC(C)COC(=O)c1ccc(NC(=O)C2C3CCC(C3)C2C(=O)O)cc1 (stereo not given)
2%,/,-6%,-0.7%,COc1ccc(-c2nc(CS(=O)(=O)CC(=O)NCCCN3CCN(C)CC3)c(C)o2)cc1
-64%,-4,-17%,2.9%,Cn1c(CCN2CCCCCC2)nc2cc(NC(=O)Nc3ccccc3)ccc21
1%,-1,?,7.5%,O=C(NNS(=O)(=O)c1ccccc1)c1ccc(S(=O)(=O)N2CCCCC2)cc1
-59%,-13,-14%,3.0%,CCC(=O)N/C(N)=N/c1nc2ccccc2o1
-29%,-1,1%,-2.2%,Cc1ccc(Nc2ccc(C(=O)NCCc3ccccc3)cn2)cc1
1%,/,2%,0.3%,CCCc1cc(C(=O)N2CCCC(Cc3ccccc3C)(C(=O)OCC)C2)no1 (stereo not given)
1%,-4,-16%,-0.1%,Cc1ccc(NS(=O)(=O)c2cccc(C(=O)NCC(c3cccs3)N(C)C)c2)cc1 (stereo not given)
-33%,5,-11%,-2.1%,Cc1ccc(Cn2ncn(-c3ccccc3)c2=O)cc1
0%,6,11%,0.1%,COc1cccc(C2CC(=O)C3=C(C2)Nc2ccccc2N(C(=O)CCC(=O)O)C3c2ccc(F)cc2)c1 (stereo not given)
-7%,8,-5%,-2.1%,Cn1c(-c2sc(=S)n(-c3ccccc3)c2N)nc2ccccc21
-7%,/,1%,0.1%,COC(=O)C1Cc2ccccc2CN1S(=O)(=O)c1ccc(F)cc1 (stereo not given)
8%,-2,4%,?,Cn1nc(NC(=O)C(C)(C)C)c2c(F)cccc21
-22%,-2,0%,1.2%,O=C(/C=C/c1ccccc1)NC(=S)Nc1ncccn1
-3%,-6,-13%,3.9%,CCC(C)C(NS(=O)(=O)c1ccc(C)cc1)C(=O)O (stereo not given)
-13%,/,-9%,0.3%,COc1ccccc1C(=O)Nc1c(C(=O)N2CCN(C)CC2)oc2ccccc12
2%,/,15%,5.3%,COc1ccc(CCNC(=O)C2CCC(=O)N2S(=O)(=O)c2ccc(C)cc2)cc1 (stereo not given)
1%,/,1%,1.2%,CC1Cc2cc(S(=O)(=O)N3CCN(c4cccc(Cl)c4)CC3)ccc2N1C(=O)C1CC1 (stereo not given)
/,/,38%,0.4%,CN(C(=O)CSc1nnc(-c2ccc3c(c2)OCO3)o1)C1CCS(=O)(=O)C1 (stereo not given)
0%,/,-3%,-0.4%,CCOc1ccc(NC(=O)CSc2nnc(-c3ccco3)n2N)cc1
0%,6,11%,-0.6%,CC(C)(C)n1nc2c(c1NC(=O)c1ccc(Br)cc1)CS(=O)C2 (stereo not given)
3%,-2,1%,3.3%,Cc1cc(C)c2c(-n3cccc3)c(NC(=O)OC(C)C)sc2n1
-6%,-7,-15%,0.1%,O=[N+]([O-])c1cccnc1NCc1cccs1
-1%,-1,-11%,-0.8%,COC(=O)c1sccc1NC(=O)c1cc(-c2cc(C)ccc2C)nc2ccccc12
4%,-10,-17%,-2.3%,CC(=O)c1cccc(CN2CCC(CO)(CCCc3ccccc3)CC2)c1
-1%,/,-16%,-4.9%,COc1cc(/C=C2/C(=O)NN(c3ccc(Cl)cc3)C2=O)cc(OC)c1O
/,/,6%,-0.2%,CC(C)CCCN1C(N(C)C)=NC[C@@H]1Cc1ccccc1
/,/,8%,0.6%,CCCCNC(=O)C(CC)(ONc1ccccc1C(F)(F)F)c1ccccc1OC (stereo not given)
0%,-11,-5%,-1.5%,CCc1cccc(NC(=O)Cn2c(-c3ccccc3)cc(C(C)=O)c2C)c1
2%,-1,0%,1.1%,CC1CCCC(C)N1C(=S)NCc1ccco1 (stereo not given)
-17%,-2,10%,?,CCOC(=O)c1ccc(N2C(=O)C3CC=CCC3C2=O)cc1 (stereo not given)
19%,-21,?,?,CCCN(CCC)CC(O)Cn1cc(/C=C/C(=O)c2ccccc2)c2ccccc21 (stereo not given)
5%,6,-11%,2.6%,O=c1[nH]c2ccccc2n1CCCN1CCCCC1
-15%,-5,-16%,-2.6%,Cc1onc(-c2ccccc2)c1C(=O)NC(=S)Nc1sc2c(c1C#N)CCC(C)C2 (stereo not given)
-3%,-18,34%,0.4%,Cc1cccc(C)c1-n1c(C)nn(CC#N)c1=O
-7%,/,4%,0.5%,Cc1cccc(Oc2ccc3c(c2)cc(C(=O)O)n3C)c1
0%,6,0%,-1.1%,COc1ccc(CC(=O)NCc2nnc(SCc3ccc(C)cc3)n2C)cc1
23%,6,0%,-0.4%,CC(C)OCCCNc1ncc2c(n1)CC(c1ccccc1)CC2=O (stereo not given)
-5%,4,-19%,0.1%,COc1cc(/C=N/NC(=O)Cn2nc([N+](=O)[O-])cc2C)cc(Br)c1OCc1ccccc1
1%,/,3%,-1.6%,CCN(CC)C(=O)Cn1c(=O)n(CC(=O)N2CCCCC2)c(=O)c2sccc21
-17%,-5,-5%,-2.4%,Cc1ccc(-n2nc3ccc(NC(=S)NC(=O)/C=C/c4ccco4)cc3n2)cc1

The last 4 compounds of the part before come first, to join the parts:
miR-21 reporter,GLA inh pH 4.5,Rango dissoc inh,Rango complex inh,Structure
23%,6,0%,-0.4%,CC(C)OCCCNc1ncc2c(n1)CC(c1ccccc1)CC2=O (stereo not given)
-5%,4,-19%,0.1%,COc1cc(/C=N/NC(=O)Cn2nc([N+](=O)[O-])cc2C)cc(Br)c1OCc1ccccc1
1%,/,3%,-1.6%,CCN(CC)C(=O)Cn1c(=O)n(CC(=O)N2CCCCC2)c(=O)c2sccc21
-17%,-5,-5%,-2.4%,Cc1ccc(-n2nc3ccc(NC(=S)NC(=O)/C=C/c4ccco4)cc3n2)cc1
0%,11,-6%,-0.6%,CCOc1ccc(NC(=O)CSc2nc(C)c3c(c2C#N)CCCC3)cc1
-6%,-19,/,/,COC(=O)C(=C/C=C/N1CCOCC1)C(=O)OC
18%,-16,2%,1.4%,NC(=O)C(c1ccc(Cl)cc1)c1ccc(Sc2ccc(Cl)cc2)nn1 (stereo not given)
4%,-16,0%,-1.6%,Cc1c(N2C(=O)CS/C2=N\N=C\c2ccc(Br)cc2)c(=O)n(-c2ccccc2)n1C
/,/,-1%,-2.9%,CC(OC(=O)CCCN=C1NS(=O)(=O)c2ccccc21)C(=O)Nc1ccc(F)c(F)c1F (stereo not given)
-4%,/,-8%,-0.5%,CCn1ccnc1CN(C)C(=O)c1ccc2nc(Cc3ccc(OC)cc3)oc2c1
-1%,-8,13%,-2.8%,Cn1c(=O)n(C)c2cc([N+](=O)[O-])c(N3CCN(S(=O)(=O)c4ccc(C(C)(C)C)cc4)CC3)cc21
21%,-4,-6%,?,Cc1ccc(S(=O)(=O)Oc2ccccc2/C=N/NC(N)=S)cc1
-2%,-11,-8%,2.3%,CCn1c(CC(=O)Nc2ccc(C)cc2)nnc1SCC(=O)NCCc1ccccc1
-46%,11,10%,2.5%,Cc1ccc(NC(=O)ON=C2CCCC2)cc1
12%,-8,-15%,5.5%,NC1=NC(=O)S/C1=C\c1ccc(O)cc1
-22%,6,11%,-1.7%,Cc1oc(-c2ccc3c(c2)OCCO3)cc1C(=O)NC(Cc1ccccc1)C(=O)O (stereo not given)
-1%,-21,16%,-1.6%,CC(C)(C)c1ccc(CN(Cc2ccco2)Cc2nnnn2C2CCCC2)cc1
-3%,/,-22%,0.7%,COc1cc([N+](=O)[O-])ccc1NC(=O)Nc1cccnc1
-9%,8,-5%,-2.4%,O=c1[nH]c(SCc2cccc(Cl)c2)nc2[nH]ncc12
/,/,3%,7.3%,Cc1ccc(C(=O)OCC(=O)NC2CCCCCC2)c(C)c1
0%,11,6%,-2.3%,CCN(CC)C(=O)c1cc(Cl)ccn1
-1%,3,-4%,-0.5%,Cc1c(C(=O)Nc2ccc(Cl)cc2)c2ccccn2c1C(=O)c1ccc(F)cc1
-3%,/,-1%,-0.2%,COc1ccc(CC(C(=O)Nc2ccc(OC)cc2)c2nn[nH]n2)cc1 (stereo not given)
2%,13,17%,-1.9%,CC(Cl)C(=O)Nc1cc(C(F)(F)F)ccc1N1CCOCC1 (stereo not given)
1%,/,-3%,-1.1%,CN(C)S(=O)(=O)c1ccc(C(=O)NCC(C)(C)CN=C2NS(=O)(=O)c3ccccc32)cc1
?,8,-16%,-12%,COc1ccc(N2CCN(C(CNS(=O)(=O)c3ccc4c(c3)OCCO4)c3ccco3)CC2)cc1 (stereo not given)
17%,/,-4%,0.4%,COC(c1ccc(Cl)cc1)(c1ccc(Cl)cc1)C(Oc1nccc(C)n1)C(=O)O (stereo not given)
-7%,-1,6%,-0.9%,CCOP(=O)(OCC)/C(=N/OC(=O)c1cccc([N+](=O)[O-])c1)C(N)=O
-34%,6,2%,3.1%,Cc1cc(C(=O)Nc2ccccc2)c(C)o1
-7%,-2,-9%,-2.0%,C#CC[N+](C)(C)CCCCCCCC
2%&-9%,-3,1%,0.8%,COc1ccc(NC(=O)CSc2nc3c([nH]c4ccccc43)c(=O)n2C)cc1
-3%,-7,23%,0.6%,Nc1nonc1C(=O)NCCNS(=O)(=O)c1ccc(F)cc1
1%,-1,9%,3.5%,Cc1sc(NC(=O)CSc2ncn(-c3ccccc3)n2)nc1-c1ccccc1
-14%,1,16%,-2.2%,COc1ccc(C(=O)N2c3ccccc3CC2C)cc1OC (stereo not given)

Looked up by compound from the list above:
miR-21 reporter,GLA inh pH 4.5,Rango dissoc inh,Rango complex inh,Structure
-7%,-1,6%,-0.9%,CCOP(=O)(OCC)/C(=N/OC(=O)c1cccc([N+](=O)[O-])c1)C(N)=O
-3%,-7,23%,0.6%,Nc1nonc1C(=O)NCCNS(=O)(=O)c1ccc(F)cc1

Following part:
miR-21 reporter,GLA inh pH 4.5,Rango dissoc inh,Rango complex inh,Structure
-2%,2,0%,3.9%,O=C(O)c1cnc2ccccc2n1
-7%,/,-18%,4.8%,COc1cccc(NS(=O)(=O)NC(=O)c2cn(C)c3ccccc23)c1
-2%,/,-25%,0.8%,O=C(Nc1ccnn1C1CCN(C(=O)c2ccc(F)c(Cl)c2)CC1)C1CC1
/,/,2%,-0.2%,Cc1noc(C)c1S(=O)(=O)N1CCN(c2ccccc2Cl)CC1
/,/,-6%,-1.0%,CCc1cc(C(=O)NN2C(=O)NC3(CCCCC3)C2=O)sc1C
-39%,/,0%,2.9%,Cc1ccc(NC(=S)Nc2cccc3ccccc23)cc1F
-7%,10,-9%,0.5%,Cc1c(C(=O)OCC(=O)Nc2ccccc2OC(F)F)cccc1[N+](=O)[O-]
/,/,-11%,4.0%,c1ccc(CSc2ncnc3c2oc2ccccc23)cc1
/,/,-15%,0.0%,CCOC(=O)c1ccccc1NC(=O)CSC(C)C(=O)Nc1cc(C)on1 (stereo not given)
0%,/,-5%,-1.6%,COC(=O)c1ccccc1S(=O)(=O)NCc1nc2nc(C)cc(C)n2n1
/,/,3%,1.4%,O=C(Cn1nc(C(=O)O)c2ccccc2c1=O)Nc1cc(C(F)(F)F)ccc1-n1cncn1
0%,/,-2%,0.0%,Cc1nc2scc(C)n2c(=O)c1S(=O)(=O)NCc1ccc(F)cc1
-5%,/,2%,4.2%,O=C(Nc1ccccc1N1CCCC1)c1cccc(F)c1
30%,/,6%,-1.0%,Nc1ncc([N+](=O)[O-])c(N2CCCCCC2)n1

Only part of the results is shown (hit frequency here may not be typical).
